Source: PubChem
TRPML1 ag: activates the human TRPML1 channel; AID 624414; activation, % (no concentration beside the values); Q9GZU1; TRPML1-expressing cells, Ca2+ dye fluorescence, FDSS; host cell line not named in the record; reference of the full effect not given here; 410,000 compounds, 0.12% hits; in the data active = activation above about 50%; inconclusive = about 30% to 50%; inactive = below about 30%; note: 0% is about no effect; the text of the record puts the active cut at 80%
Target sequence (Q9GZU1 whole entry, looked up): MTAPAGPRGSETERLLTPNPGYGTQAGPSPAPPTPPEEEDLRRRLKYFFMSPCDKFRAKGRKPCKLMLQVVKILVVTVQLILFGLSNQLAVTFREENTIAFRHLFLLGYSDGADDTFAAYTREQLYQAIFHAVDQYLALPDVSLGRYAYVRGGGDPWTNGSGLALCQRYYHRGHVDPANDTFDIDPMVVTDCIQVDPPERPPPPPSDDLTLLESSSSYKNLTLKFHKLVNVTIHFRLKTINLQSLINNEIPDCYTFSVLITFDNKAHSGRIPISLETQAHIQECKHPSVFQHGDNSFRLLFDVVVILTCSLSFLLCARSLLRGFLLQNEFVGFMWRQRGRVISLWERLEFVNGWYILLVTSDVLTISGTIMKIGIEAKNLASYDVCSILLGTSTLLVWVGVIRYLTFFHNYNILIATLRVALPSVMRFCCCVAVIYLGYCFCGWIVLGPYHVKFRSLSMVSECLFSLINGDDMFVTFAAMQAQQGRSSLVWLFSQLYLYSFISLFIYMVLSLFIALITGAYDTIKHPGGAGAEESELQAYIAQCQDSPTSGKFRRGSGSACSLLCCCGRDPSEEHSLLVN
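Tet-induced TRPML1-DL cells, 1,500 per well, cultured overnight, were loaded with a no-wash Ca2+ dye for 45–90 min. Calcium fluorescence was recorded on the FDSS for 110 s after compound addition, before the EC80 agonist (4 uM 54-4) was added.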
gsp antag: gsp mutant antagonism; gsp-mutant cells, cAMP HTRF, 30 min; control for the full effect not named in the record; Potency, µM (highest dose often 76.9 µM), without a hit: at the highest dose activity change, negative = inhibition, hits mostly inhibitors; 340,000 compounds, 0.4% hits; active = falling curve of any shape with a large fitted effect; inconclusive = falling curve, mostly with a smaller effect; inactive = flat or rising curve; cell line not stated here;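 note: intracellular cAMP measured with PDE inhibitor Ro 20-1724 present during compound exposure; potency is the fitted concentration of half-maximal effect; % is set by controls: 0 for no effect and ±100 for the full control effect; nearly all actives have a fitted effect of over 65% in size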
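HTRF cAMP read-out (cAMP-d2 plus anti-cAMP antibody-K in lysis buffer, 30 min RT). Before lysis, cells are exposed to compounds with […] for 30 min at 37C in DPBS containing Ca/Mg, BSA and Tween 20.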
Menin MLL FP FL: displaces fluorescein MLL peptide from human menin | 290,000 tested, under 10 active | Fluorescence polarization, fluorescein-MLL peptide displacement from menin | AID 1766 | FP activity change, % at 61.4 µM; inconclusive = falling polarisation curve, or a change in total fluorescence; inactive = total fluorescence flat and polarisation flat or rising; no compound was filed as active; the % refers to the polarisation; negative = inhibition;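 note: % of control where 0% means no effect; inhibitors lower the polarisation; unlabelled MLL peptide was the positive control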
gsp ag: activates gsp, the McCune-Albright syndrome mutation | 340,000 compounds, 0.13% hits | gsp mutant cells, cAMP HTRF, 30 min; control for the full effect not named in the record | AID 624287 | Potency, µM (titrated, usually from 76.9 µM), inactives show top-dose activation (cAMP increase), most hits filed as activators; active = well fitted activation curve with a large enough effect; inconclusive = small, poorly fitted or top-dose-only effect, or another doubt; inactive = no such curve, though single readings can be large or run the other way; cell line not stated here;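 note: phosphodiesterase inhibitor Ro 20-1724 added with compounds to block cAMP breakdown; potency is the fitted concentration of half-maximal effect; nearly all actives have a fitted effect of over 60% in size; about a fifth of the inactives were tested at one dose only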
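Cells stably selected in G418 were plated at 2000/well, grown 16-24 hr, then given compounds in DMSO with the PDE inhibitor […] (300 uM solution added) for 30 min at 37C; cAMP was read by HTRF.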
TRPML1 blocker: human mucolipin-1 channel inhibition | Q9GZU1 | TRPML1-inducible cells, Ca2+ dye fluorescence, FDSS; stronger effect = lower value; inhibition of EC80 agonist-evoked calcium signal | activity change, negative = inhibition, % (no concentration beside the values) | 390,000 compounds, 0.02% hits | AID 624415; in the data active means activity change below about -50%; inconclusive means about -30% to -50%; inactive means above about -30%;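 note: stimulus is agonist 54-4 at its EC80 concentration; % is set by controls: 0 for no effect and ±100 for the full control effect; compound concentration not given in the record; the text of the record puts the active cut at -80%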
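TRPML1-DL cells, Tet-induced overnight (~16 h, 37 °C) at 1,500 cells/well, were loaded with Ca8 no-wash dye plus quencher for 45-90 min at room temperature. Compounds were pinned during FDSS kinetic reading; agonist 54-4 at EC80 (4 uM final) then added.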
ClpP mod: qHTS Assay for Activators of ClpP | purified B. subtilis ClpP, FRET peptide cleavage, 20 min | Potency, µM (highest dose often 57.5 µM), inactives show at the top dose activity change, negative = active | 340,000 compounds, 1.9% hits | ATP-dependent Clp protease proteolytic subunit (Bacillus subtilis (strain 168)), P80244; active = well fitted falling curve with a large enough effect; inconclusive = small, poorly fitted or top-dose-only effect; inactive = no such curve, though single readings can be large or run the other way; note: potency is the fitted concentration of half-maximal effect; the source files actives as falling curves though it sought activators and does not explain the sign; nearly all actives have a fitted effect of over 65% in size; many hits overshoot -100%
Target sequence (P80244 whole entry, looked up): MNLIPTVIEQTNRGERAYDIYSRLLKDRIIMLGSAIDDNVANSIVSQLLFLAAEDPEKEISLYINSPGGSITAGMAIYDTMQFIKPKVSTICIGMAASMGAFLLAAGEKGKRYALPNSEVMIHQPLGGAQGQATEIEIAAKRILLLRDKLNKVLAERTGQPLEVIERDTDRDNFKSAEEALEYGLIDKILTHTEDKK
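ClpP 10 microg/mL final, pH 8 Tris/KCl buffer with BSA, glycerol, Tween-20; compound pinned in; FRET-FV substrate; RT 20 min; Ex320/Em430; ΔFRET vs ADEP 5.8 microM, DMSO, no enzyme.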
* = called active by the depositor; ? = inconclusive; . = no result given; & = joins results of further samples; [ ] = dose if it differs, or a comment.

SMILES	TRPML1 ag	gsp antag	Menin MLL FP FL	gsp ag	TRPML1 blocker	ClpP mod
C=C(C)COc1ccc2c3c(c(=O)oc2c1OCC(=C)C)CCC3	4.1	-19.6%	1.0	?	68.7	?
COc1ccc(OCCC(=O)c2ccc(OC)cc2)cc1	1.4	2.0%	0.1	10.3%[15.4 µM]	14.4	.
COc1ccc(-c2noc(CCC(=O)NCCc3ccccc3)n2)cc1OC	2.6	-3.4%	2.4	-49.5%[inhibitor]	-5.2	-0.6%
O=C(O)c1cccc(S(=O)(=O)N(Cc2ccccc2)c2ccccc2)c1	-0.2	.	3.1	-2.7%[15.4 µM]	-16.1	.
CC(C(=O)NC(C)(C)C)N(C(=O)CS(=O)CC(=O)Nc1ccc(F)cc1)C1CCCC1 (centres undefined)	1.1	10.2%	0.3	-6.3%[15.4 µM]	33.6	0.5%
CCOC(=O)N/N=C(\C)c1ccc(C)c([N+](=O)[O-])c1	1.4	13.3%	-1.9	6.0%	-9.3	0.9%
Cc1nc2sc(C(c3ccco3)N3CC(C)OC(C)C3)c(O)n2n1 (centres undefined)	0.2	13.0%	-0.6	3.2%	11.2	3.4%
O=C1C2C3C=CC(C3)C2C(=O)N1CCN1CCN(Cc2ccc([N+](=O)[O-])cc2)CC1 (centres undefined)	0.1	5.8%	-6.6	6.8%	-1.3	1.4%
CC(C)/C=C1\CCc2c([nH]c3ccccc23)C1=O	0.6	-4.1%	1.2	2.6%	43.0	.
CCn1c(=O)n(CC)c2cc([N+](=O)[O-])ccc21	0.0	2.5%	-0.6	-1.0%	-2.5	0.6%
O=C(CN1C(=O)c2ccccc2S1(=O)=O)c1cccc(Br)c1	0.3	7.4%	.	-16.0%	21.7	-2.3%
CCCNc1ncc2c(=O)[nH][nH]c(=O)c2n1	-0.7	7.3%	.	?	-1.0	.
CC1Cc2ccccc2N1S(=O)(=O)c1cccc(C(=O)N2CCCCC2)c1 (centres undefined)	1.9	1.6%	.	-6.9%[15.4 µM]	-6.0	0.7%
COc1ccc(-c2cc(OC(=O)c3ccccc3Cl)c3c(C)oc(C)c3c(=O)c2)cc1OC	0.4	.	.	.	-4.3	-1.1%
Nc1nc(SCc2ccccc2Cl)[nH]c(=O)c1-c1ccccc1	1.6	10.3%	1.7	-5.5%	34.7	-0.6%
COc1cc(OC)cc(-c2nnc(NC(=O)CCS(=O)(=O)c3ccc(C)cc3)o2)c1	3.4	-9.8%	.	17.1%[15.4 µM]	-11.2	.
Cc1ccc(Nc2nc(Cl)c(C=O)s2)cc1Cl	0.8	-44.0%	15.0	28.7%[15.4 µM]	-2.2	.
CCOCCCNC(=O)CCCn1nc(C)n2c(cc3sccc32)c1=O	0.0	-3.0%	-0.6	?	1.8	-8.4%
CCOc1ccc(Nc2ccc(C(=O)O)cc2[N+](=O)[O-])cc1	1.7	?	-1.4	6.2%	-6.7	0.6%
CNC(=O)C1CCN(S(=O)(=O)c2c(C)noc2/C=C/c2ccc(C)cc2)CC1	0.6	8.0%	4.6	-38.2%[inhibitor]	57.1	-2.7%
COCCn1nnnc1C(c1ccccc1OC)N1CCN(c2ccccc2F)CC1 (centres undefined)	3.4	-3.8%[15.4 µM]	-1.5	8.4%	2.7	-1.8%
CC(C)(C)c1cc(-c2n[nH]c(=S)n2-c2ccccc2F)n[nH]1	0.5	-12.2%	0.5	13.1%[15.4 µM]	18.9	.
Cc1nnsc1C(=O)N1CCCC(Nc2ccc(C(C)C)cc2)C1 (centres undefined)	-0.3	7.8%	4.8	?	13.5	-0.7%
O=C(Nc1ccc2c(c1)OCO2)C1CC(=O)N(c2cccc(Cl)c2)C1 (centres undefined)	-0.7	-2.6%	2.3	7.1%[15.4 µM]	9.5	.
COC(=O)Cn1c(=O)c2c(n(Cc3ccccc3)c1=O)N/C(=C/c1ccc(Br)cc1)C2=O	7.4	-15.4%	?	?	8.2	-4.9%
Cc1c(OCC(=O)N[C@@H](Cc2c[nH]c3ccccc23)C(=O)O)ccc2c1oc(=O)c1ccccc12	.	-2.4%	-4.4	.	.	4.5%
O=C(NCC1CCCO1)C1CCCN1C(=O)NC1CCCCC1 (centres undefined)	0.3	2.1%	-0.2	17.3%[15.4 µM]	-0.7	0.0%
CCC(C)[C@H](NC(=O)N1CCC(C)CC1)C(=O)O (some centres undefined)	0.6	-8.1%	-0.7	-10.7%[15.4 µM]	7.1	.
O=C(CC(NC(=O)c1ccccc1Cl)c1ccccc1)Nc1ccc2c(c1)OCO2 (centres undefined)	0.3	-12.4%	-0.6	13.4%	-3.2	-0.3%
CC(C)(C)OC(=O)N1CCC(c2c(C(=O)N3CCN(c4ccccn4)CC3)cnn2-c2ccc(F)cc2)CC1	0.9	.	.	.	13.4	-3.3%
O=C(NCC1CCCO1)c1nn2cccnc2c1Cl (centres undefined)	1.0	3.3%	-0.3	-3.0%	3.8	-2.6%
Cc1cc(C)cc(N(CC(=O)Nc2ccc(Br)cc2)S(=O)(=O)c2c(C)[nH]c(=O)[nH]c2=O)c1	0.4	7.3%	.	-4.0%	16.3	-1.1%
Oc1[nH]c2ccccc2c1C=Nc1ccc2c(c1)OCCO2	1.6	?	-0.4	-33.6%[inhibitor]	12.0	-3.3%
CCCCNc1nc(=S)[nH]c2cc(OC)c(OC)cc12	-0.9	26.4%	-0.3	?	13.7	-4.3%
O=C(/C=C/c1cccc2ccccc12)c1ccncc1	2.2	7.3%	-1.3	-34.3%[inhibitor]	11.8	-2.2%
Cc1c(C)n(Cc2ccccc2)c2ncnc(NCCCN(C)C)c12	0.0	7.3%	-4.1	-12.9%	7.1	-8.0%
CC(Sc1nc2ccccc2[nH]1)C(=O)NC1CCCCC1C (centres undefined)	1.7	-5.1%	.	-11.7%[15.4 µM]	-4.6	-0.3%
COc1ccc(OCC(=O)NC(=O)c2ccccc2OC)c([N+](=O)[O-])c1	1.8	-10.9%	.	18.3%[15.4 µM]	6.3	.
O=C(CC1SC(N2CCCCC2)=NC1=O)Nc1ccc(C(=O)O)cc1 (centres undefined)	-0.5	6.9%	.	13.7%	3.1	-0.9%
C/C=C/c1ccccc1OCc1ccc(C(=O)OC)o1	2.0	-3.2%	31.0	-23.5%	-13.2	-2.6%
CCOc1ccc(NC(=O)CN(C)CC(=O)Nc2ccccc2SC)cc1OCC	0.3	-17.1%	0.0	?	-12.6	1.5%
CC(=O)Nc1ccc(S(=O)(=O)NCCS(=O)(=O)N2CCN(c3ccccc3F)CC2)cc1	-1.2&-0.7	9.8%	-7.3	1.0%	26.8&0.6	-0.7%&1.0%
CNC(=O)CSCc1c(Cl)cccc1Cl	0.6	8.5%	4.9	-53.8%[inhibitor]	13.5	-7.0%
Cc1ccc(CNC(=O)Cn2ncc3c([nH]c4ccc(C)cc43)c2=O)cc1	3.2	.	.	.	2.0	-17.3%
Cc1ccc(C)c(NC(=O)CSc2c(C)n[nH]c2C)c1	0.0	15.8%	0.9	2.3%[15.4 µM]	1.6	0.3%
O=C(CCc1ccccc1)NNC(=O)c1ccncc1	-1.3	15.7%	.	2.9%	3.2	1.2%
CN(C)c1ccc(/C=C(\C#N)C(=O)OCC(=O)N(C)C2CCS(=O)(=O)C2)cc1 (centres undefined)	6.6	-22.2%	.	-10.9%	0.7	4.1%
COc1cc(C2c3c(n[nH]c3C)C(=O)N2c2ccc(C)cc2)ccc1O (centres undefined)	0.0	-11.6%	2.9	-15.7%	-6.1	0.3%
COCc1nnc(NC(=O)CCc2ccccc2)s1	0.1	-4.6%	4.3	8.2%	15.1	0.6%
CC(=O)c1ccc(NC(=O)C(C)OC(=O)COc2ccc(C#N)cc2)cc1 (centres undefined)	1.0	1.1%	2.3	0.0%	-0.3	-7.8%
C=CCn1c(COC)nnc1SCC(=O)c1ccc(F)cc1	-0.3	10.0%	4.2	-7.1%	9.6	-0.9%
O=C(COC(=O)c1ccc(S(=O)(=O)N2CCc3ccccc3C2)cc1)NC1CCS(=O)(=O)C1 (centres undefined)	-0.4	7.5%	3.3	-3.9%	8.7	.
Cc1ccc(Cl)cc1-n1nnc(-c2nsc(NC(=O)c3ccccc3Cl)n2)c1C	-0.8	.	.	.	4.6	-1.0%
COc1cc(C2c3sc(=O)[nH]c3SC3C4CCC(C4)C23)ccc1O (centres undefined)	1.8	-25.4%	3.3	22.0%	6.0	-2.5%
Cc1[nH]n(C(N)=S)c(=O)c1N=Nc1cccc(Cl)c1	.	-16.7%	-6.1	-7.3%	.	0.0%
COc1ccc(/C=C/C(=O)Nc2ccc(C)cc2)cc1	3.1	.	.	.	18.7	-5.0%
CCN(CC)S(=O)(=O)c1ccc(O)c(C(=O)OCC(=O)NC2CCCC2)c1	-1.3	-37.7%	-2.7	13.6%[15.4 µM]	18.8	-0.9%
COCCCNC(=O)CCN1C(=O)COc2ccccc21	1.1	5.8%	-0.1	-26.0%	-3.3	-1.8%
CCCCc1ccc(NC(=O)CC(C)(C)C)cc1	-0.3	-9.4%	-0.4	21.5%[15.4 µM]	-2.7	-2.2%
CCOC(=O)C1Nc2ccccc2C2C(O)C(O)CC12 (centres undefined)	0.5	1.5%	.	16.6%	-9.2	-10.8%

The list goes on.
SMILES	TRPML1 ag	gsp antag	Menin MLL FP FL	gsp ag	TRPML1 blocker	ClpP mod
Cc1ccc2nsnc2c1NC(=O)c1ccc([N+](=O)[O-])cc1	2.1	-12.2%	2.0	10.3%[15.4 µM]	-5.9	.
CCCCn1nnnc1SCC(=O)N(CC)CC	-0.6	4.5%	0.3	-22.6%	-3.5	-2.2%
COc1ccc(CN2CCNC(=O)C2CC(=O)N2CCCN(C(C)=O)CC2)c(OC)c1 (centres undefined)	-0.5	16.0%	-0.4	11.2%	-5.1	-1.9%
O=C(CNC(=O)c1ccccc1)OCC(=O)c1ccc(Cl)s1	1.8	-4.3%	.	?	-6.1	0.4%
O=C(COc1ccc(Cl)cc1Cl)Nc1cccc(-c2ccc(N3CCOCC3)nn2)c1	-0.1	9.7%	.	5.0%	24.2	-1.4%
O=C(Nc1ccc(S(=O)(=O)N2CCCC2)cc1)C1CCN(S(=O)(=O)c2ccc(F)cc2)CC1	1.6	10.4%	.	-52.1%[inhibitor]	-3.7	?
CCOc1cc(N2CCOCC2)c(OCC)cc1NC(=O)COc1ncnc2ccccc12	-0.6	-23.1%	-3.4	4.1%	6.8	-1.0%
CCOC(=O)c1ccc(Nc2c(-c3ccc(N(C)C)cc3)nc3nc[nH]n23)cc1	0.9	.	.	.	-1.0	-1.0%
COc1ccc(C(=O)NC2CCN(CC(=O)NC3CCCCC3)CC2)cc1	-0.6	-0.8%	-0.5	-1.3%[15.4 µM]	12.6	.
COc1ccc(N2C(=O)c3ccccc3C(C)(C)C2=O)cc1	0.4	0.0%	0.1	-23.8%	7.0	.
